Assay outcomes deposited in PubChem BioAssay by National Center for Advancing Translational Sciences (NCATS).
KAT2A inh – inhibitors of human GCN5L2 histone acetyltransferase; AID 504327; GCN5L2 HAT assay, ThioGlo1 CoA-SH fluorescence; Q92830; 0.21% of 390,000 active; Potency, µM (top dose mostly 58.9 µM), without a hit: top-dose activity change, negative = inhibition, usual class: inhibitors
Target sequence (Q92830 whole entry, looked up): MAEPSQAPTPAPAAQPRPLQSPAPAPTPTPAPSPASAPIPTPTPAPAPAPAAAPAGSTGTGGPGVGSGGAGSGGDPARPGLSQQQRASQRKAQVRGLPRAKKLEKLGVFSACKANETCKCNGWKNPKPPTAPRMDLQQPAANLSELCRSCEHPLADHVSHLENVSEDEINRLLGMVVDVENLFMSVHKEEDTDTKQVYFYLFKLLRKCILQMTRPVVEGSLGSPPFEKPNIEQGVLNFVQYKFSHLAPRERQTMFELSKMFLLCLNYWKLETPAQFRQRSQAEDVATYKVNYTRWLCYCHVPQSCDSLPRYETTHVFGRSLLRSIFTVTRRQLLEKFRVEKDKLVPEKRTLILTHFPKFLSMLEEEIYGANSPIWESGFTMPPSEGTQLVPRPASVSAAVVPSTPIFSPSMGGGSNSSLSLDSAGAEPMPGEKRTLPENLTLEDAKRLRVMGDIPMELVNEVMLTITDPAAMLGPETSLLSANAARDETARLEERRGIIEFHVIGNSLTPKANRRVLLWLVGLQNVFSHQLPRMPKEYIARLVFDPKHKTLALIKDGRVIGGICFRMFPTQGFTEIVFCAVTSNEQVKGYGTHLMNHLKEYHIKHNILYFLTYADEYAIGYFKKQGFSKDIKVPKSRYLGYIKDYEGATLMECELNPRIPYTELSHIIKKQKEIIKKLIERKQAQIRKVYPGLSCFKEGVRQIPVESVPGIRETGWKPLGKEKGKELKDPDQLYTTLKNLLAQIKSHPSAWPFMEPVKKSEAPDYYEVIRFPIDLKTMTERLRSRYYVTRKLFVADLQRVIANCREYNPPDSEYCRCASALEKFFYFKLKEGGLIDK
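Enzyme at 20nM final was mixed with library compounds for 15 min at room temperature. Peptide H3(1-25) at 75uM, acetyl-CoA at 70uM and ThioGlo1 at 50uM were then added. Plates were read immediately and after 20 min (Ex340nm/Em540nm).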
N370S GC mod – inhibitors or activators of N370S glucocerebrosidase for Gaucher disease | Potency, µM (highest dose often 59.4 µM), for inactives: at the top dose activity change, negative = inhibition, usual class: inhibitors | AID 2101 | N370S GC spleen homogenate, 4MU-glucoside fluorescence | P04062 | 0.092% of 330,000 active;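 also: 0% = full enzyme activity and -100% = no enzyme basal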
Active calls of the source: *; ? = inconclusive; nt = not tested or not shown; & = joins results of further samples; [ ] = dose if it differs, or a comment. Calls follow the shape of the dose curve; as a rule, active = well fitted curve in the direction sought with a large enough effect; inconclusive = small, poorly fitted or top-dose-only effect, or another doubt; inactive = no such curve, though single readings can be large; an effect the other way counts as inactive or inconclusive. Unless noted, % is scaled to controls: 0 for no effect and ±100 for the full control effect; potency is read from the fitted curve at half-maximal effect. Some of the compounds tested; most or all hits stand in other tables.

cpd	KAT2A inh	N370S GC mod	smiles
1	-1%	nt	CN(C(=O)C1CCN(S(=O)(=O)c2ccccc2[N+](=O)[O-])CC1)C1CCCCC1
2	-4%	-2%	O=C(N/C(=C/c1cccc([N+](=O)[O-])c1)C(=O)N1CCOCC1)c1ccc(Br)cc1
3	?	-2%	CN(Cc1nc2ccccc2c(=O)[nH]1)CC(O)COCc1ccco1 (stereo not drawn)
4	-7%	-3%	CCSc1nnc(N2C(=O)C(O)=C(C(=O)c3ccco3)C2c2cccc(OC)c2)s1 (stereo not drawn)
5	-4%	-5%	CCc1ccccc1NC(=O)CNC(=O)c1ccccc1OCc1c(C)noc1C
6	-2%	3%	CCC(C)NC(=O)c1cc2c(=O)n(CC)c3ccccc3c2s1 (stereo not drawn)
7	-4%&-5%	-27%	CCc1ccc(NC(=O)C2CCCN(S(=O)(=O)c3c(C)[nH]c(=O)[nH]c3=O)C2)cc1 (stereo not drawn)
8	-6%	-25%	CCc1ccc2nc(N(CCN(C)C)C(=O)/C=C/c3cccs3)sc2c1
9	0%	3%	NC(=O)c1ccccc1NC(=O)CCn1c(=S)oc2ccccc21
10	-3%	-1%	c1ccc(Nc2nc(CSc3ncn[nH]3)cs2)cc1
11	-10%	1%	O=C(Nc1ccc(-n2cccn2)cc1)C1CCCCN1Cc1cccc2cccnc12 (stereo not drawn)
12	-15%	-6%	COc1ccccc1N1CCN(S(=O)(=O)c2cccc3nsnc23)CC1
13	-13%	3%	O=C(c1ccc(NC(=O)C(c2ccccc2)c2ccccc2)cc1)c1ccc(C(=O)O)c(C(=O)O)c1
14	-3%	18%	O=C(NCC(c1ccc(F)cc1)N1CCOCC1)c1cc(F)c(F)c(F)c1F (stereo not drawn)
15	-1%	3%[2.35 µM]	COCCn1c(C)cc(C(=O)CSc2nnc(-c3cccnc3)n2-c2ccccc2F)c1C
16	-3%	nt	Cc1ccc2c(COC(=O)CNC(=O)c3ccco3)cc(=O)oc2c1C
17	2.5µM*	6%	O=C(NCc1ccccc1)c1cc(-c2cccs2)on1
18	-2%	1%[2.35 µM]	CC(c1nnc(SCC(=O)c2c(N)n(C)c(=O)n(C)c2=O)n1-c1ccc(Cl)cc1)N(C)C (stereo not drawn)
19	4%	nt	C[C@H]1CN([C@@H](C)CO)C(=O)Cc2cc(NS(=O)(=O)c3cn(C)cn3)ccc2O[C@@H]1CN(C)C(=O)Nc1ccc(F)cc1
20	2%	nt	O=C(COc1ccccc1Br)N1CCN(C(=O)c2cccs2)CC1
21	-19%	14%	Cc1ccccc1-c1nnc(SCc2ccc(F)cc2)o1
22	0%	1%	CC(NC(=O)C(C)(C)C)c1nc2ccccc2n1C (stereo not drawn)
23	-4%	4%	O=C(NCCCN1CCOCC1)C(=O)NCc1ccccc1Cl
24	-9%	3%	Cc1ccc(N=C2SCCCN2C(=O)c2ccco2)cc1Cl
25	-2%	0%	O=S(=O)(Cc1ccccc1)C1CCCCC1O (stereo not drawn)
26	-22%	-1%	COC(=O)c1cc(NS(=O)(=O)c2ccc(OC)c(OC)c2)ccc1Cl
27	-7%	10%	COc1ccc(OC)c(-n2nnnc2SCC(=O)NCCc2ccccc2)c1
28	-15%	?	O=C(OC1CCOC1=O)c1cc(-c2cccs2)nc2ccccc12 (stereo not drawn)
29	0%	3%	Cc1ccc(CN2CCN(C(=O)C3CCC3)CC2)cc1
30	-10%	16%	Oc1ccccc1C1=Nc2nc3ccccc3n2C(c2ccccc2)C1 (stereo not drawn)

Marked active in KAT2A inh, of those listed so far:
cpd	KAT2A inh	N370S GC mod	smiles
17	2.5µM*	6%	O=C(NCc1ccccc1)c1cc(-c2cccs2)on1

(list continues)
cpd	KAT2A inh	N370S GC mod	smiles
31	-9%	6%	COc1ccc(CN2C(=O)CN(C3CCCCCC3)C(=O)C2c2ccc(OC)c(OC)c2)cc1 (stereo not drawn)
32	0%	5%	O=C(OCC(=O)N1CCOCC1)c1ccc2[nH]c3c(c2c1)CCCC3
33	3%	nt	Cc1ccsc1CN(C)C(=O)c1cc(S(=O)(=O)N2CCOCC2)ccc1N1CCCC1
34	-2%	6%	C/C=C/C=C/C(=O)OC(C)C(=O)Nc1cc([N+](=O)[O-])ccc1OC (stereo not drawn)
35	-20%	-10%	COc1cc(N=Cc2c(O)c3ccccc3oc2=O)c(OC)cc1Cl
36	-9%	5%	CCOC(=O)c1c(N)sc2c(OCC)c(Br)ccc12
37	0%	-3%	CCN(C(=O)/C=C/c1ccccc1)C1CCCCC1
38	-6%	-6%	O=[N+]([O-])c1ccc(NCCN2CCOCC2)c([N+](=O)[O-])c1
39	-2%	1%	Nn1c(SCC(=O)NCCCc2ccccc2)nnc1-c1cccnc1
40	1%	10%	CC(C)/C(=N\NS(=O)(=O)c1ccc(Br)cc1)c1cccs1
41	0%	5%	COc1ccc(-n2nc(C(=O)NCCCN3CCOCC3)c3ccccc3c2=O)c(OC)c1
42	-8%	10%	O=C(Cn1c(=O)n(-c2ccccc2)c(=O)c2sccc21)NCc1ccccc1
43	-7%	-19%	O=C(CNCc1ccco1)Nc1ccc(N2CCCCCC2)cc1
44	-17%	-5%	CC(C)(C)NS(=O)(=O)c1ccc2nc(NC(=O)c3ccc(N4C(=O)CCC4=O)cc3)sc2c1
45	-10%	0%	NS(=O)(=O)c1ccc(CNC(=O)c2cc(-c3ccccn3)nc3ccc(Cl)cc23)cc1
46	-3%	nt	CCCN(CCC)CCCNC(=O)c1cn(C)c2ccc(S(=O)(=O)N3CCOCC3)cc2c1=O
47	3%&1%	1%	CCCCNC(=O)C1CCC(CNS(=O)(=O)c2ccc(C)cc2)CC1 (stereo not drawn)
48	-5%	1%	c1ccc2c(c1)CCN2CCN1CCc2ccccc21
49	-2%	1%	Oc1cc2c(cc1CN1CCc3ccccc3C1)OCO2
50	-6%	nt	CCN(Cc1nc2cc(Cl)ccc2c(=O)[nH]1)C(=O)C1CC(=O)N(c2cccc3ccccc23)C1 (stereo not drawn)

Structures from the list above that have a furan ring, fused or not:
cpd	KAT2A inh	N370S GC mod	smiles
3	?	-2%	CN(Cc1nc2ccccc2c(=O)[nH]1)CC(O)COCc1ccco1 (stereo not drawn)
4	-7%	-3%	CCSc1nnc(N2C(=O)C(O)=C(C(=O)c3ccco3)C2c2cccc(OC)c2)s1 (stereo not drawn)
16	-3%	nt	Cc1ccc2c(COC(=O)CNC(=O)c3ccco3)cc(=O)oc2c1C
24	-9%	3%	Cc1ccc(N=C2SCCCN2C(=O)c2ccco2)cc1Cl
43	-7%	-19%	O=C(CNCc1ccco1)Nc1ccc(N2CCCCCC2)cc1

Next part.
cpd	KAT2A inh	N370S GC mod	smiles
51	-4%	11%	CC12CN(S(=O)(=O)c3ccccc3)CC(C)(CN(S(=O)(=O)c3ccccc3)C1)C2
52	0%	-10%	CNc1ccc([N+](=O)[O-])cc1
53	2%	14%	COC(=O)c1ccc(CSc2nc3sc(C(=O)O)c(C)c3c(=O)[nH]2)cc1
54	-27%	2%	COc1ccc(NC(=O)CN(C)C(=O)c2cc(-c3ccncc3)nc3ccccc23)cc1
55	-6%	0%	Cn1c(=O)c2c(ncn2Cc2nnc(N)s2)n(C)c1=O
56	-15%	9%	CC(C)(C)N(CC#CCC1(O)c2ccccc2-c2ccccc21)CCO
57	4%	0%	Cc1occc1-c1nnc(SCC(=O)NC2CC2)n1C(C)C
58	29%	8%	COc1cc(NC(=S)N2CCN(C(=O)c3ccco3)CC2)c(OC)cc1Cl
59	-7%	-4%	CCOP(=O)(c1ccc(N(C)C)cc1)C(O)c1ccc(OC)cc1 (stereo not drawn)
60	0%	-5%	COc1ccc(F)cc1C(=O)C1CCCN(Cc2ccc(Oc3ncccn3)cc2)C1 (stereo not drawn)
61	5%	-18%	CC1(C)CC(CC(=O)NC(=S)Nc2ccc([N+](=O)[O-])cc2)C(=O)O1 (stereo not drawn)
62	0%	-7%	CC(Oc1ccc(F)cc1Br)c1nc2ccccc2c(=O)[nH]1 (stereo not drawn)
63	-5%	-1%	S=C(NN=C(C1CC1)C1CC1)Nc1ccccc1
64	?	4%	CC[C@@H](C)[C@@H](C(=O)N1CCN(C(=O)OC(C)(C)C)CC1)n1cc(CCC(=O)O)nn1
65	39%[activator]	-4%	COc1ccc(C2C(C#N)=C(N)OC3=C2C(=O)CC(C)(C)C3)cc1 (stereo not drawn)
66	-2%	12%	C=CCSC1=N/C(=C\c2ccc(C(=O)O)cc2)C(=O)S1
67	2%	-16%	COc1ccc(C(=O)C2CCCN(C(=O)/C=C/c3cnc[nH]3)C2)c(C)c1 (stereo not drawn)
68	9%	12%	O=C(NC1CCCC1)C(c1ccc(N2CCOCC2)cc1)N(Cc1ccco1)C(=O)c1ccco1 (stereo not drawn)
69	1%	0%	CCOc1ccc(NC(=O)CSc2ncn[nH]2)c([N+](=O)[O-])c1
70	-5%	nt	C[C@@]12C(=O)N(c3cccc(Cl)c3)C(=O)N1[C@@H]1c3ccccc3OC[C@@H]1[C@H]2c1ccccc1
71	-4%	?	Cn1c(SCCCC(=O)c2ccc(Br)cc2)nnc1-c1ccncc1
72	-6%	-6%	COc1cccc(C2CC(c3ccc(C(C)C)cc3)n3nc(N)nc3N2)c1 (stereo not drawn)
73	0%	?	O=C(Nc1ccc(Cl)c(Cl)c1)OCc1cnc(Cl)s1
74	-18%	4%	O=C(CSc1nnc2ccccn12)N1CCc2ccccc21
75	-1%	0%	COc1ccc(S(=O)(=O)NNC(=O)Nc2ccc(C)cc2)c(OC)c1
76	-14%	-1%	COc1ccc(OC)c(S(=O)(=O)N2CCC(C(=O)N3CCN(Cc4ccccc4)CC3)CC2)c1
77	-3%	-5%	CCN(CC(=O)Nc1ccc(NC(C)=O)cc1)C(=O)c1cn(-c2ccccc2)nc1-c1cccs1
78	3%	15%	COc1cc(/C=C/C(=O)O)cc(S(=O)(=O)Nc2ccc(F)cc2)c1OC
79	-5%	9%	CC(C)N(Cc1ccccc1)C(=O)CN1C(=O)c2ccccc2C1=O
80	-6%	0%	COC(=O)c1c(C)[nH]c(C)c1-c1cccc([N+](=O)[O-])c1

Part of the list above in order of length of the SMILES, rising.
cpd	KAT2A inh	N370S GC mod	smiles
43	-7%	-19%	O=C(CNCc1ccco1)Nc1ccc(N2CCCCCC2)cc1
56	-15%	9%	CC(C)(C)N(CC#CCC1(O)c2ccccc2-c2ccccc21)CCO
13	-13%	3%	O=C(c1ccc(NC(=O)C(c2ccccc2)c2ccccc2)cc1)c1ccc(C(=O)O)c(C(=O)O)c1

(more compounds)
cpd	KAT2A inh	N370S GC mod	smiles
81	0%	nt	COc1ccc(OC)c(CN2CCN(C(=O)CNC(=O)c3cc(C)cc(C)c3)CC2)c1
82	4%	-29%	COc1ccccc1C1CCN(C(=O)c2cccs2)CC1
83	-3%	-18%	Cc1[nH]c2ccccc2c1C(=O)CN1CCC(C(N)=O)(N2CCCCC2)CC1
84	-2%	-10%	COc1cc(NC(=O)c2ccc(Br)cc2)ccc1NC(=O)c1cc2ccccc2o1
85	0%	7%	COc1ccc(CNC(=O)[C@@H](NC(=O)C2CCN(S(=O)(=O)c3ccccc3)CC2)C(C)C)cc1
